B2AR ag: agonists of human beta-2 adrenergic receptor inducing internalization; P07550; Am2.2-beta2AR cells, FAP receptor internalization, flow cytometry; reference of the scale not given here; response, % (no concentration beside the values); actives 0.43% (n = 340,000);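 active = response above a set limit, near 3 SD of response in nonfluorescent compounds, cut at about 42% in these data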;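 also: stock transfer was 100 nL into about 11 µL; a reference agonist was the positive control; negative values mostly stem from fluorescent compounds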
Target sequence (P07550 whole entry, looked up): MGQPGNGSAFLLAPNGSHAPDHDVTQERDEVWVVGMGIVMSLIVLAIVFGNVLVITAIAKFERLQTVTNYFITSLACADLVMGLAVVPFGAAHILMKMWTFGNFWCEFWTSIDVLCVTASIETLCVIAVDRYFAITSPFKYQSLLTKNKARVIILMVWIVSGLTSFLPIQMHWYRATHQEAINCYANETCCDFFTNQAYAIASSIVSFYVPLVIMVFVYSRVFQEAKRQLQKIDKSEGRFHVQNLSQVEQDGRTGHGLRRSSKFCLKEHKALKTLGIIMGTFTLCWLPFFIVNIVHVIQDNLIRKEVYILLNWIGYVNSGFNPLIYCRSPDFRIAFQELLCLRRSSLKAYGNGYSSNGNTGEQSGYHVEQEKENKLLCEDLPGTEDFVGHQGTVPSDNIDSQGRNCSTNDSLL
UCH37 inh: inhibitors of human deubiquitinating enzyme UCH37 | Q9Y5K5 | purified proteasome/UCH37, Ub-AMC cleavage fluorescence | inhibition, % (no concentration beside the values) | actives 0.33% (n = 330,000) | AID 588478;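 active = mean of two replicates above 20%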;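 also: 0% = compound-free wells with enzyme and 100% = wells lacking proteasome; stock transfer was 100 nL into about 20 µL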
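System: Proteasome-associated human UCH37 deubiquitinase; Input: 0.15 nM proteasome in added enzyme buffer; Also added: Ub-AMC substrate from 1 µM stock; Incubation: 30 min compound-proteasome preincubation then 25 min substrate reaction, room temperature; Detection: fluorescence, ex 355 nm, em 460 nm; Read-out: % inhibition of Ub-AMC cleavage fluorescence; Benchmarks: no-proteasome and no-compound wells.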
HNF4A DNA FP: change in binding of human HNF4 alpha to DNA; HNF4a-FITC DNA binding, fluorescence polarization, 1 h; P41235; AID 1224865; activity change, % at 10 µM; actives 0.3% (n = 360,000); in the data active = activity change above about 30%, passing the limit was not always enough;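 also: controls were the assay level and a saturating level of protein; the project sought stronger binding though the title names inhibitors; some compounds called inactive have numbers as strong as hits; positive values seem to mean higher polarization but the record does not say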
FGF22 binding: binders of recombinant human FGF22 by thermal shift. calls only at 9.99 µM. SYPRO orange fluorescence; percent of sucrose octasulfate shift, DMSO zero. Q9HCT0. actives 1.5% (n = 340,000). AID 651658;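 active = melting point raised past a set limit in the mean and every replicate; three in four hits are not shown here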
Target sequence (Q9HCT0 whole entry, looked up): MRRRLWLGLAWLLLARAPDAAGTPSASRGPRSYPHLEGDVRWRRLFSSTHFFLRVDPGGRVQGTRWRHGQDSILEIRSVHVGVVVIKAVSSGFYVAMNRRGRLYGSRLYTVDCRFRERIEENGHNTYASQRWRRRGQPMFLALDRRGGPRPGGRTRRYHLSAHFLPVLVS
ALR inh: human ALR oxidase inhibition via reduced H2O2; inhibition, % (concentration not given with the values); actives 3.8% (n = 290,000); purified ALR, DTT oxidation, H2O2 HRP-luminol luminescence; P55789;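 active = mean and each replicate at 75% or more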;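 also: stock transfer was 7.5 nL into about 7.5 µL; 0% = neutral wells and 100% = wells with inactivated enzyme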
Target sequence (P55789 whole entry, looked up): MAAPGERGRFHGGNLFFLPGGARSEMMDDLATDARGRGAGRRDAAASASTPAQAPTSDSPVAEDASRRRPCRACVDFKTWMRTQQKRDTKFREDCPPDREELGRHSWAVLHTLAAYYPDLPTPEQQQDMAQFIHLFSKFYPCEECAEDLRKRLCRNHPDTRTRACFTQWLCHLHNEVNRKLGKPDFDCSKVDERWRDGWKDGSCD
Ecoli rRNA inh: inhibitors of bacterial rRNA selective over humanized ribosomes; E. coli WT GFP vs humanized-ribosome RFP mutants, fluorescence, 24 h; hits give low values; DMSO median 0, no signal -100; GFP signal change (wild-type ribosome), % (no concentration beside the values); actives 1.6% (n = 350,000);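 active = significant combined selectivity score with lowered wild-type GFP, culture density cut under 30%, mutant RFP and density less affected; inactive = any of these conditions unmet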; also: one replicate is shown; some compounds called inactive have numbers as strong as hits
Ecoli growth: inhibitors of Escherichia coli growth | AID 1053175 | OD600 absorbance (concentration not given with the values) | actives 0.21% (n = 330,000) | OD600, 23 h; hits give low values;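 active = OD600 absorbance below the run mean of sample wells minus 3.6 SD, in any replicate, cut at about 0.56 in these data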;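 also: stock transfer was 300 nL into about 60 µL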
Ecoli rRNA inh OD600: second read-out of Ecoli rRNA inh, no call of its own (marks repeat the call); OD600 change, %; measured here: OD600 growth;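 optical density of the mix in the first replicate; 0 = DMSO median and -100 = no signal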
Ecoli rRNA inh RFP: recorded beside Ecoli rRNA inh, whose call it bears; RFP signal change, %; measured here: RFP humanized mutant strains;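 first replicate; 0 = DMSO median and -100 = no signal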
Active calls of the source: *; i = inactive; . = not tested or not shown.

cpd | Structure | B2AR ag | UCH37 inh | HNF4A DNA FP | FGF22 binding | ALR inh
1 | O=C(NCc1nc2ccccc2[nH]1)C1=C[C@@H](c2ccc(Br)cc2)C[C@@H](OCc2ccc(CO)cc2)O1 | 5 | 0.0 | -1.5 | i | 8
2 | COc1ccccc1/C=C/C(=O)NCC(=O)N/N=C(/C)c1ccc(Cl)cc1 | -6 | . | -1.2 | i | 1
3 | CCOCCCNC(=O)c1ccc(OC)cc1 | 0 | 3.5 | -4.0 | . | .
4 | O=C(O)CCC(=O)NNC(=O)COc1ccc2ccccc2c1Br | -6 | 4.8 | 0.3 | i | -11
5 | Cc1cc(NC(=O)c2ccccc2C)ccc1NC(=O)c1ccccc1Cl | 7 | 2.6 | -6.7 | i | 1
6 | CCOC(=O)c1c(C)[nH]c(NC(=O)NNC(=O)c2ccc(OC)cc2)c1C | 8 | -0.9 | -3.5 | i | 8
7 | O=C(COC(=O)c1cc(=O)[nH]c2ccccc12)NCc1ccccc1 | 5 | -20 | 0.8 | i | 0
8 | CN(CC(=O)Nc1ccc(N2CCOCC2)cc1)C(=O)COc1ccccc1F | 0 | -0.7 | 9.7 | i | 78*
9 | CCOC(=O)C1=C(C#N)C(C(=O)OCC)c2ncccc21 (stereo not drawn) | . | . | 2.9 | i | .
10 | CCCCN(Cc1ccco1)S(=O)(=O)c1c[nH]c(C(=O)OC)c1 | -12 | 5.1 | -3.2 | i | 1

cpd | Ecoli rRNA inh | Ecoli rRNA inh OD600 | Ecoli rRNA inh RFP | Ecoli growth
1 | -18 | -10 | 19 | .
2 | -2 | 7 | -2.0 | .
3 | . | . | . | 0.69
4 | 8 | 6 | 2.4 | 0.69
5 | 9 | 12 | 2.5 | 0.68
6 | . | . | . | 0.68
7 | 2 | -4 | -1.4 | 0.69
8 | -6 | -1 | -5.0 | 0.74
9 | 7 | 12 | 1.2 | .
10 | -33 | -31 | -4.0 | 0.7

The closing four records of the part before open the next one.
cpd | Structure | B2AR ag | UCH37 inh | HNF4A DNA FP | FGF22 binding | ALR inh
7 | O=C(COC(=O)c1cc(=O)[nH]c2ccccc12)NCc1ccccc1 | 5 | -20 | 0.8 | i | 0
8 | CN(CC(=O)Nc1ccc(N2CCOCC2)cc1)C(=O)COc1ccccc1F | 0 | -0.7 | 9.7 | i | 78*
9 | CCOC(=O)C1=C(C#N)C(C(=O)OCC)c2ncccc21 (stereo not drawn) | . | . | 2.9 | i | .
10 | CCCCN(Cc1ccco1)S(=O)(=O)c1c[nH]c(C(=O)OC)c1 | -12 | 5.1 | -3.2 | i | 1
11 | CC(=O)c1ccc(NC(=O)NNS(=O)(=O)c2ccc(F)cc2)cc1 | 0 | -1.6 | 0.4 | i | 5
12 | CCC(=O)N1c2ccccc2NC2=C(C(=O)CC(c3ccco3)C2)C1c1ccco1 (stereo not drawn) | 6 | -0.1 | 4.5 | . | 6
13 | CN(C)S(=O)(=O)c1cc(NC(=O)CNCCN2CCOCC2)ccc1Cl | -7 | 2.6 | -0.7 | i | 3
14 | NC(=O)Cn1nc2sc3ccccc3n2c(=O)c1=O | . | -1.4 | . | i | -4
15 | c1ccc(-c2ncc(-c3ccn[nH]3)s2)cc1 | 0 | -251 | 1.5 | i | 4
16 | O=C(Cn1nc(C(=O)O)c2ccccc2c1=O)Nc1ccc2c(c1)OCO2 | -2 | 4.0 | 4.1 | i | 0
17 | Cc1ccc(SC(C)C(=O)NC2CC2)cc1 (stereo not drawn) | 1 | 0.3 | 0.8 | i | 1
18 | COC(=O)c1cc(C(=O)OC)cc(N2C(=O)CN=C2Nc2nc(C)cc(C)n2)c1 | -15 | 6.1 | -0.6 | . | -3
19 | COc1ccc(/C=C/C(=O)NCCCc2ccccc2)cc1OC | 12 | -6.0 | -3.8 | . | -7
20 | Cc1cc([N+](=O)[O-])cc2c1NC(c1ccccn1)C1CC=CC21 (stereo not drawn) | 1 | 6.4 | -1.0 | i | .

cpd | Ecoli rRNA inh | Ecoli rRNA inh OD600 | Ecoli rRNA inh RFP | Ecoli growth
7 | 2 | -4 | -1.4 | 0.69
8 | -6 | -1 | -5.0 | 0.74
9 | 7 | 12 | 1.2 | .
10 | -33 | -31 | -4.0 | 0.7
11 | 0 | 0 | -0.3 | 0.63
12 | . | . | . | 0.69
13 | 14 | 6 | -5.4 | 0.67
14 | 2 | 12 | -1.8 | 0.68
15 | 7 | 5 | 2.7 | 0.66
16 | -1 | 13 | -1.5 | 0.7
17 | 0 | 11 | -2.7 | 0.7
18 | . | . | . | 0.71
19 | . | . | . | 0.65
20 | -5 | 0 | -2.9 | 0.73

Next section:
cpd | Structure | B2AR ag | UCH37 inh | HNF4A DNA FP | FGF22 binding | ALR inh
21 | CCOC(=O)C1CCN(C(=O)c2cccc(S(=O)(=O)N(C)C3CCCCC3)c2)CC1 | 8 | 3.2 | -0.8 | i | -4
22 | CCOC(=O)C1=C2c3cc(OC)c(OC)cc3CC(C)(C)N2C(=O)C1=O | 1 | 6.4 | -2.4 | i | -5
23 | O=C(Nc1ccc(C(=O)O)cc1)/C(=C\c1ccc([N+](=O)[O-])cc1)NC(=O)c1ccc(Br)cc1 | 10 | 8.2 | -0.2 | i | -12
24 | CC1CCCN(Cc2nc3c(c(=O)n(C)c(=O)n3C)n2CCCc2ccccc2)C1 (stereo not drawn) | -5 | -1.8 | 2.8 | . | -22
25 | O=C(NCc1ccc2c(c1)OCO2)c1cccc2c1C(=O)N(C1CCCCC1)C2 | -10 | 1.6 | 2.1 | i | .
26 | CCC(=O)Nc1ccc(C(=O)CSc2nnc(-c3cccnc3)o2)cc1 | -35 | 1.1 | 4.7 | . | 54
27 | C[N+]1(CC(O)COc2ccccc2)CCN(C(=O)c2ccc([N+](=O)[O-])cc2)CC1 (stereo not drawn) | -4 | 2.0 | -2.7 | . | -3
28 | CNC(=O)c1ccsc1NC(=O)CS(=O)(=O)c1ccc(F)cc1 | . | . | -0.4 | i | .
29 | COc1ccc(S(=O)(=O)N/N=C\c2ccc([N+](=O)[O-])o2)c(OC)c1 | 4 | . | 0.7 | i | -79
30 | CC1CC(C)CN(S(=O)(=O)N2CCCC(C(=O)NC3CCCCC3C)C2)C1 (stereo not drawn) | -6 | 0.6 | 1.1 | i | -1

cpd | Ecoli rRNA inh | Ecoli rRNA inh OD600 | Ecoli rRNA inh RFP | Ecoli growth
21 | -3 | -7 | -0.6 | 0.66
22 | -3 | 2 | -6.7 | 0.69
23 | -12 | 10 | 0.1 | 0.63
24 | . | . | . | 0.68
25 | 4 | 13 | 0.6 | 0.71
26 | . | . | . | 0.7
27 | . | . | . | 0.69
28 | 6 | 3 | 0.0 | .
29 | -1 | 0 | 0.2 | .
30 | 5 | 5 | -0.2 | 0.68

(further entries)
cpd | Structure | B2AR ag | UCH37 inh | HNF4A DNA FP | FGF22 binding | ALR inh
31 | O=C1c2ccccc2NC(c2ccc(-c3cccc([N+](=O)[O-])c3)o2)N1O (stereo not drawn) | -3 | 4.7 | 0.4 | i | 90*
32 | Cc1c(C(=O)N2CCOCC2)c(S(=O)(=O)Nc2ccccc2)c(C)n1C | 3 | 2.9 | -2.3 | i | 1
33 | COc1cc(/C=C2/C(=N)N3N=C(CC(=O)N4CCOCC4)SC3=NC2=O)ccc1OCc1ccc(F)cc1 | 6 | 11 | 0.2 | i | 5
34 | CCc1ccc(-c2csc(NC(=O)Oc3ccccc3)n2)cc1 | 4 | 6.4 | -1.8 | i | -16
35 | Cc1ccccc1-n1nc(C)c2c(C(=O)NN)cc(-c3ccncc3)nc21 | -4 | -5.3 | -0.1 | i | -11
36 | COc1ccc(C(C)=O)cc1CSCCC(=O)O | 0 | 1.2 | 0.4 | . | 98*
37 | C=CCOc1ccc(CN(C)C(=O)C2CCCO2)cc1 (stereo not drawn) | -2 | 1.0 | 1.1 | i | .
38 | COc1cc(OC)cc(C(=O)NCCCn2ccnc2)c1 | -9 | -1.8 | 1.8 | i | 5
39 | c1ccc(Nc2ccccn2)nc1 | 3 | 2.2 | 3.7 | i | 4
40 | Nc1ncc(Br)cc1S(=O)(=O)NCCc1ccccc1 | -4 | -0.8 | 1.1 | i | 2

cpd | Ecoli rRNA inh | Ecoli rRNA inh OD600 | Ecoli rRNA inh RFP | Ecoli growth
31 | -21* | 1.5* | 6.6* | 0.63
32 | 16 | 7 | -0.2 | 0.71
33 | 2 | 6 | 3.1 | 0.66
34 | 3 | 10 | 4.8 | 0.67
35 | -1 | -7 | -1.5 | 0.64
36 | . | . | . | 0.75
37 | 3 | 9 | -2.6 | 0.67
38 | 4 | 10 | -1.4 | 0.73
39 | 6 | 4 | -1.2 | 0.64
40 | -17 | -20 | -0.6 | 0.65

The list continues.
cpd | Structure | B2AR ag | UCH37 inh | HNF4A DNA FP | FGF22 binding | ALR inh
41 | Cn1c(=O)cc(SCC(=O)NCCCN2CCN(c3ccccc3F)CC2)c2ccccc21 | -13 | 0.6 | -1.8 | . | -26
42 | CC(=O)c1cccc(NC(=S)N2CCN(S(C)(=O)=O)CC2)c1 | 0 | -1.5 | -3.0 | i | 3
43 | Cc1c(C)n(CC(O)CN2CCCCCC2)c2ccccc12 (stereo not drawn) | 1 | 3.8 | 1.4 | . | 98*
44 | O=c1[nH]c(/C=C/c2ccc(Br)cc2)nc2ccccc12 | -5 | -38 | 2.6 | i | -2
45 | O=C(CCN1C(=O)/C(=C\c2ccccc2)SC1=S)N1CCOCC1 | -4 | 4.3 | -1.0 | i | .
46 | COc1cccc(/C=C/C(=O)NNC(=O)c2ccncc2)c1OC | 6 | 3.9 | 3.5 | i | .
47 | O=C(O)c1ccccc1-c1ccccc1C(=O)Nc1ccccc1 | -1 | 1.4 | -3.1 | . | -24
48 | Cc1cccc(-c2nnn(Cc3nnc(NC(=O)c4ccccc4)s3)n2)c1 | 3 | 1.9 | 0.6 | . | -13
49 | O=S1(=O)CCC(NS(=O)(=O)c2cccc3cccnc23)C1 (stereo not drawn) | 0 | 1.3 | 0.4 | . | -11
50 | CCSC(=Nc1ccccc1)Nc1ccccc1 | -22 | 7.5 | 3.6 | i | -7

cpd | Ecoli rRNA inh | Ecoli rRNA inh OD600 | Ecoli rRNA inh RFP | Ecoli growth
41 | . | . | . | 0.69
42 | 3 | 5 | -3.1 | 0.72
43 | . | . | . | 0.72
44 | 12 | 10 | 0.6 | 0.7
45 | 3 | 13 | -3.1 | 0.72
46 | 9 | 11 | -1.3 | 0.7
47 | . | . | . | 0.69
48 | . | . | . | 0.72
49 | . | . | . | 0.7
50 | -39 | -52 | -10 | 0.67

New compounds follow.
cpd | Structure | B2AR ag | UCH37 inh | HNF4A DNA FP | FGF22 binding | ALR inh
51 | O=C(Nc1ccnn1C1CCN(C(=O)c2ccc(Cl)c(F)c2)CC1)C1CCOC1 (stereo not drawn) | -2 | 2.0 | -3.7 | i | -1
52 | O=C(Cn1cnc2sc3c(c2c1=O)CCCC3)NCC(=O)Nc1c(F)cc(F)cc1Br | -13 | 5.2 | -4.7 | i | 0
53 | O=C(CN1CCN(c2cccc(C(F)(F)F)c2)CC1)Nc1ccc2c(c1)OCCCO2 | . | . | -2.7 | i | .
54 | Cc1ccc(C)c(N2CCN(C(=O)C3CCCCN3S(=O)(=O)c3ccc(F)cc3)CC2)c1 (stereo not drawn) | 17 | 5.5 | -2.3 | i | -4
55 | COC(=O)c1ccccc1NC(=O)NCc1ccco1 | -19 | -2.1 | -0.8 | . | -6
56 | O=C(O)C1CCC(=O)N(C2CC2)C1c1ccccc1 (stereo not drawn) | 5 | 1.8 | -1.5 | . | -8

cpd | Ecoli rRNA inh | Ecoli rRNA inh OD600 | Ecoli rRNA inh RFP | Ecoli growth
51 | 4 | 3 | 2.5 | 0.74
52 | 8 | 4 | -1.8 | 0.67
53 | -2 | -33 | -4.5 | .
54 | 3 | 2 | 19 | 0.68
55 | . | . | . | 0.63
56 | . | . | . | 0.73

Screening results (PubChem BioAssay)

An excerpt; count on the stated rates, not on these rows.
